Rango complex inh – prevents formation of the Rango-importin beta complex. Q14974. Rango CFP/YFP FRET sensor + importin beta, 45 min. Potency, µM (top dose mostly 92.2 µM), inactives show at the highest dose inhibition of complex formation. 340,000 tested, 0.031% active; active = rising FRET ratio curve, often small or poorly fitted; inconclusive = mostly compound fluorescence or quenching in the first reads; inactive = flat curves in all reads;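 also: potency is read from the fitted curve at half-maximal effect; 0% = DMSO wells and 100% = buffer wells lacking importin beta; nearly all actives have a fitted effect of over 15% in size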
Target sequence (Q14974 whole entry, looked up): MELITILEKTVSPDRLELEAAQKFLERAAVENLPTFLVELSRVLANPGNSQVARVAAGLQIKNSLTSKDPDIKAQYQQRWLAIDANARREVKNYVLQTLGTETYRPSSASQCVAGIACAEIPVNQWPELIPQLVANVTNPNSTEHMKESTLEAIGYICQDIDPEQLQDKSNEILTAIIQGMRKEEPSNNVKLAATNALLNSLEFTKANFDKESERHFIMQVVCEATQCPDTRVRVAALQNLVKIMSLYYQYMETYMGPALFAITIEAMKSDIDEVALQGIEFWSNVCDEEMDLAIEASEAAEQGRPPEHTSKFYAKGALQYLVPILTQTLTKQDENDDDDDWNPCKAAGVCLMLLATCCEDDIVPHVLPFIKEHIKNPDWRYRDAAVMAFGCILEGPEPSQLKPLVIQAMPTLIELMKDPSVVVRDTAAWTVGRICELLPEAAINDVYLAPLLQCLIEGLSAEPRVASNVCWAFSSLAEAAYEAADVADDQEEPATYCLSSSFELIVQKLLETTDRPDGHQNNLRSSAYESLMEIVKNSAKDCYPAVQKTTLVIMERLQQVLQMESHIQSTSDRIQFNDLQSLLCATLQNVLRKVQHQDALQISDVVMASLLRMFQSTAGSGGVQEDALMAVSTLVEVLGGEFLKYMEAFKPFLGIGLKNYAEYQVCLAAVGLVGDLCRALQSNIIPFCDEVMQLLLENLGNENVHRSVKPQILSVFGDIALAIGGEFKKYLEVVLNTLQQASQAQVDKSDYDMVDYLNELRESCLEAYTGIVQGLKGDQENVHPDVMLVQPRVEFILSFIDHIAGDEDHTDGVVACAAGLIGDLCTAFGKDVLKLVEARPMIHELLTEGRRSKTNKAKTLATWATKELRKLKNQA
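Inhibition scored from the CFP 486 nm/YFP 530 nm FRET ratio 45 min after adding 0.125 microM importin beta to 50 nM Rango biosensor preincubated 5 min with compound (room temperature, PBS with DTT, Tween-20, BSA). No-importin wells as positive control.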
GLA inh pH 4.5 – inhibitors of human alpha-galactosidase A at pH 4.5 | activity change, negative = inhibition, % at 105 µM | 230,000 tested, under 10 active | purified enzyme, 4-MU-alpha-Gal fluorescence, pH 4.5; inconclusive = small, poorly fitted or top-dose-only inhibition, or a rising curve; inactive = flat fitted curve, though single readings scatter; no compound was filed as active;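 also: 0% = full activity with enzyme and -100% = basal without enzyme; dose as in the result columns while the protocol names 77 µM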
miR-21 reporter – raises the signal of a miR-21 reporter | HeLa miR-21 FLuc reporter, luciferase, 48 h | Potency, µM (doses to about 38.3 µM), for inactives: at the top dose reporter change, positive = more light | 340,000 tested, under 10 active; active = well fitted rising curve with a large enough effect; inconclusive = small, poorly fitted or top-dose-only effect; inactive = no such curve, though single readings can be large or run the other way;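 also: % of control where 0% means no effect; miR-21 action dims this reporter so a rising signal means less miR-21 action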
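HeLa cells endogenously expressing miR-21, stably carrying CMV-driven firefly luciferase with a downstream miR-21 binding site, 2000 cells/well. Titrations up to approximately 40 uM, 48 hours; luciferase luminescence read.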
Rango dissoc inh – inhibitors of RanGTP-induced Rango-importin beta complex dissociation; Biochemical FRET Rango-importin beta, RanGTP-induced dissociation; O95149+P62826; Potency, µM (titrated, usually from 46.1 µM), without a hit: at the highest dose activity change, negative = inhibition; AID 540253; 340,000 tested, 0.071% active; active means falling FRET ratio curve, often poorly fitted, with flat reads before Ran was added; inconclusive means other falling curves, or compound fluorescence or quenching; inactive means flat or rising ratio curve;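 also: potency is read from the fitted curve at half-maximal effect; % of control where 0% means no effect; nearly all actives have a fitted effect of over 45% in size; -100% = wells without RanGTP and RCC1; the record marks most hits as doubtful in a second field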
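Rango/importin beta premix (0.1/0.25 uM final), PBS + 1 mM DTT + 0.02% Tween-20 + 0.1% BSA; cpd 5 min RT; FRET pre-read; + RanGTP-RCC1 (0.6 uM Ran, 2 mM GTP, 0.2 uM RCC1); 45 min RT; FRET post-read, ex 430, em 486/530 nm.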
* hit, by the source's call; ? = inconclusive; . = not tested or not shown; & = joins results of further samples.

entry	Compound	Rango complex inh	GLA inh pH 4.5	miR-21 reporter	Rango dissoc inh
1	O=C(CN1C(=O)C2CCCCC2C1=O)OCc1nnc(-c2ccccc2)o1 (centres undefined)	-1.0%	-17	3%	17%
2	O=C(Cn1c(C(F)(F)F)nc2ccccc21)NCCCN1CCOCC1	-0.2%	-2	0%	-3%
3	Nc1ccc(OCc2ccccc2)cc1[N+](=O)[O-]	-1.2%	.	.	-2%
4	CCN(CC)S(=O)(=O)c1cc(NC(=O)CCNC(=O)c2ccccc2Cl)ccc1C	-1.5%	2	0%	5%
5	Cc1nn(S(=O)(=O)c2ccc(F)cc2)c(C)c1S(=O)(=O)N1CCCCC1	0.4%	.	2%&1%	2%
6	O=C(c1cccc(Cl)c1)N1CCN(Cc2c[nH]c3ccccc23)CC1	0.2%	3	-10%	9%
7	CCNC(=O)CSc1nnc(-c2ccc(OC)cc2)n1CC(C)C	-2.2%	5	-1%	4%
8	CCOCc1nnc(NC(=O)C2CCN(C(=O)C3CC(=O)N(c4ccc(C)cc4)C3)CC2)s1 (centres undefined)	-0.3%	.	0%	-5%
9	O=C(CCc1nnc(COc2ccccc2)o1)NCc1ccccc1C(F)(F)F	5.4%	-1	-17%	-2%
10	COc1cccc(NC(=O)CNC(=O)c2ccc(F)cc2)c1	8.0%	1	-30%	-18%
11	CC(C)(C)c1ccc(OCCSc2nc3ccccc3n2CC(=O)O)cc1	3.2%	.	-1%	2%
12	CCOC(=O)[C@@H]1[C@H]2COc3ccc(Br)cc3[C@H]2N2C(=O)N(c3ccc(C)cc3)C(=O)[C@@]12C	1.1%	.	.	-2%
13	Cc1c(O)c(CN(C)C)cc2c1oc(=O)c1ccccc12	-4.7%	-2	-36%	-4%
14	O=C(Cn1cc2c(n1)CCCC2)NCc1cccc(Cl)c1	-0.3%	3	-7%	15%
15	O=c1[nH]c(/C=C/c2ccc3c(c2)OCO3)c([N+](=O)[O-])c(=O)[nH]1	.	-2	0%	.
16	CCc1ccc(NC(=O)C2CCN(S(=O)(=O)c3c(C)noc3C)CC2)cc1	1.3%	.	0%&0%	0%
17	CCN(Cc1ccccc1)S(=O)(=O)c1ccc(OC)c2ncccc12	-1.9%	-2	-20%	0%
18	Cc1ccc(NS(=O)(=O)c2ccc(-n3cccn3)cc2)nc1	-3.1%	.	1%	0%
19	COc1ccc2c(c1)CCc1c(C(=O)NCc3ccc(F)cc3)noc1-2	-0.1%	1	0%	17%
20	CC(=O)OCc1nc2sc(C)c(C)c2c(=O)[nH]1	0.3%	-4	-8%	-2%
21	O=C(N/N=C/c1ccc(F)cc1)c1cc(-c2ccccn2)nc2ccccc12	-1.1%	.	.	-3%
22	COc1ccc(Cl)cc1NC(=O)CN(C)CC(=O)Nc1ccccc1C(F)(F)F	-2.4%	-15	0%	0%
23	Cc1cccc(-n2c(=O)cc(N3CCN(c4ccc(F)cc4)CC3)[nH]c2=O)c1	-3.6%	-1	-3%	9%
24	COCCn1nnnc1CN1CCSCC1	-4.4%	-9	0%	?
25	CCN(c1ccccc1)S(=O)(=O)c1ccc(N)c(OC)c1	-0.2%	4	18%	10%
26	Cc1ccc(-n2cnnn2)c2cccnc12	-2.3%	-6	-8%	-13%
27	CC(=O)N=C1SC2CS(=O)(=O)CC2N1c1cccc(Cl)c1Cl (centres undefined)	1.8%	-4	-5%	5%
28	C#CCn1c(=NC(=O)c2ccco2)sc2cccc(Cl)c21	2.5%	-1	-16%	9%
29	COCCCn1c(SCC(=O)NC(C)C)nnc1-c1ccccc1	?	-1	-3%	-1%
30	Cc1cc(NC(=O)CN2C(=O)NC(c3ccccc3)(c3ccc(C)c(C)c3)C2=O)no1 (centres undefined)	1.1%	.	.	2%
31	CCOc1ccccc1N(C(C)=O)S(=O)(=O)c1ccc(Cl)cc1	-3.5%	6	-1%	35%
32	COc1ccc(NS(=O)(=O)c2cn(C)cn2)cc1OC	-1.1%	.	0%	-14%
33	CC(C)C[C@H](NC(=O)[C@@H]1Cc2ccccc2CN1C(=O)OC(C)(C)C)C(=O)NCC1CCC(C(=O)O)CC1 (some centres undefined)	-1.1%	4	1%	-10%
34	COc1ccc(C=O)cc1OC1C=CCCC1 (centres undefined)	0.9%	.	1%	18%
35	CCN(CC)CCN(C(=O)c1ccc([N+](=O)[O-])cc1)c1nc2ccc(OC)cc2s1	0.2%	6	-1%	-1%
36	CCCOc1ccc(C(=O)NCc2ccco2)cc1	0.0%	-8	-36%	-4%
37	CCn1c(-c2cccc(S(=O)(=O)N3CCCC3)c2)n[nH]c1=S	1.1%	-9	-17%	-3%
38	Cc1nc(S/C(=C\c2ccc(OCc3ccccc3Cl)cc2)C(=O)O)n[nH]1	-5.1%	5	-4%	?
39	CN1CCN(C(=O)c2ccccc2Nc2ccc(SC(F)F)cc2)CC1	-1.1%	9	2%	-18%
40	CC(C)(C)c1ccc(C(=O)NNC(=O)c2cccc(-n3cnnn3)c2)cc1	-0.5%	-10	-11%	8%
41	N#CC1=C(N)SC(C(=O)c2ccccc2)C1c1cccs1 (centres undefined)	0.2%	1	0%	3%
42	Cc1sc2ncn(CC(=O)NCCCC(=O)N3CCCCC3)c(=O)c2c1C	1.2%	.	-1%	13%
43	Cc1ccccc1C(=O)Nc1ccc(S(=O)(=O)Nc2onc(C)c2C)cc1	0.4%	1	0%	3%
44	CCOc1ccc(NS(=O)(=O)c2ccc(-c3coc(C)n3)cc2)cc1	-2.3%	.	-8%	3%
45	O=C(NCc1ccccc1)c1cccc(NC(=O)c2ccccc2)c1	-0.1%	.	.	-8%
46	c1ccc(-c2nnc3ccc(N4CCCC4)nn23)cc1	0.2%	-2	-14%	-11%
47	COc1ccccc1NC(=S)NC1CCCC1	0.1%	.	.	-5%
48	CN(C)c1nc(OCCNC(=O)Nc2ccccc2)nc(N2CCCCC2)n1	0.2%	-9	-2%	-4%
49	OCC[C@@H]1C[C@@H](O)[C@H](O)[C@@]2(CCCO2)O1	-0.5%	.	.	16%
50	Cn1c(SCC(=O)Nc2ccccc2[N+](=O)[O-])nnc1C(F)(F)F	6.2%	7	-3%	2%
51	COCCOC(=O)C1=C(C)NC(=O)N(C(C)=O)C1c1ccc(Cl)cc1 (centres undefined)	0.0%	-9	1%	2%
52	Cc1cccc(NC(=O)c2cc3ccccc3nc2C)c1	-1.0%	-15	0%	-7%
53	CN(c1ccccc1C(=O)N1CCN(c2cccc(Cl)c2)CC1)S(C)(=O)=O	0.3%	-2	-1%	-1%
54	Cc1ccccc1-n1c(SC(C)C(=O)N2CCN(C)CC2)nc2ccccc2c1=O (centres undefined)	0.3%	-1	-9%	11%
55	CSc1nc(N)nc2c1ncn2CC(=O)N[C@H](CO)Cc1c[nH]c2ccccc12	2.8%	.	.	-13%
56	COc1ccc(/C=C/C(=O)OCC(=O)NCc2ccccc2)cc1OC	0.9%	.	.	-19%
57	CCNc1nc(NCC)n2c(SCC(=O)Nc3ccccc3OC(F)F)nnc2n1	1.5%	.	.	-10%
58	O=C(Nc1nccs1)C1CCN(S(=O)(=O)c2ccc(Cl)c(C(F)(F)F)c2)CC1	-1.6%	-2	-3%	-1%
59	CCN(Cc1ccccc1)S(=O)(=O)c1ccc(C(=O)N(CCCN(C)C)c2nc3cc(OC)ccc3s2)cc1	-1.7%	.	.	3%
60	CCN1CCN(c2ccc(NC(=O)c3ccc4c(c3)OCO4)cc2)CC1	-0.5%	-3	-40%	0%

(listing goes on)
entry	Compound	Rango complex inh	GLA inh pH 4.5	miR-21 reporter	Rango dissoc inh
61	CCOC(=O)C1(CCc2ccccc2)CCN(C(=O)CCn2cncn2)CC1	-1.1%	-5	-37%	9%
62	O=C(CSc1nc2ccccc2c(=O)n1CC1CCCCC1)N1CCOCC1	-3.8%	0	8%	3%
63	CCCC(=O)Nc1ccc(C(=O)O)cc1NC(=O)CCC	0.6%	-1	0%	0%
64	Cc1cccc(C(=O)N/N=C/c2ccc[nH]2)c1	-3.9%	-18	-44%	-10%
65	N#Cc1nc(-c2ccccc2F)oc1N1CCN(C(=O)c2ccco2)CC1	-0.2%	.	-1%	-19%
66	CN(C)C(CNC(C(=O)Nc1ccc(F)cc1)c1ccccc1)c1ccccc1 (centres undefined)	-3.6%	.	-13%	5%
67	C=CCn1c(SCC(=O)C(C)(C)C)nnc1-c1ccccn1	4.1%	-8	-10%	-2%
68	CCc1nc(SCC(=O)Nc2ccccc2OC)n[nH]1	?	.	-1%	-10%
69	O=[N+]([O-])c1ccccc1/C=N/n1c(C(F)(F)F)n[nH]c1=S	-1.6%	-2	1%	2%
70	Cc1noc(C)c1CSCC(=O)Nc1nc(-c2ccc(F)c(F)c2)cs1	0.1%	.	.	1%
71	FC(F)(F)c1cc(-c2ccccn2)nc2cc(-c3ccccc3)nn12	-0.3%	1	-1%	-11%
72	c1ccc(-n2cnc3cc(NCc4ccco4)ccc32)cc1	-1.2%	-5	-39%	6%
73	CCCC(=O)N1CCN(c2ccc(NC(=S)NC(=O)CC)cc2)CC1	1.9%	-7	0%	0%
74	CCOC(=O)/C(C#N)=C/c1cccc(F)c1	1.0%	-3	5%	-1%
75	CSc1nc2ccsc2c(=O)n1-c1cccnc1	-0.6%	-7	-7%	-13%
76	Nc1nccnc1C(=O)OCC(=O)C12CC3CC(CC(C3)C1)C2	-0.6%	.	.	2%
77	O=C(CCN1C(=O)C2C3C=CC(C3)C2C1=O)N1CCN(c2ccc([N+](=O)[O-])cc2)CC1 (centres undefined)	-0.4%	-7	7%	0%
78	CN(C(=O)c1ccccc1)C1(C)CCS(=O)(=O)C1 (centres undefined)	0.9%	6	-3%	-10%
79	Cc1ccc(CNS(=O)(=O)c2cc3c(cc2C)NC(=O)CO3)cc1	0.8%	.	-5%&0%	-1%
80	CCc1ccc(S(=O)(=O)Nc2ccc(C)c(NS(C)(=O)=O)c2)cc1	3.2%	0	2%	1%
81	CCOC(=O)CSc1nnc(-c2cccs2)n1-c1ccccc1	?	5	-6%	0%
82	Cc1cccc(CSC2=NCCN2C(=O)c2ccc(Br)o2)c1	8.1%	-1	-4%	13%
83	COc1cc(C=O)ccc1OS(=O)(=O)c1ccc(NC(C)=O)cc1	0.0%	-8	3%	1%
84	COc1ccc(OC)c(/C=N/NC(=O)CCCC(=O)Nc2cccc(Br)c2)c1	-5.7%	4	-1%	0%
85	N#Cc1sc2nccc(Nc3ccccc3)c2c1N	?	.	.	-28%
86	COc1cc2c(-c3ccc4cc[nH]c4c3)c(-c3ccsc3)oc(=O)c2cc1OC	?	.	.	-12%
87	COc1ccc(C(=O)Nc2cccc(NC(=O)c3cccs3)c2)cc1OC	-0.1%	.	5%	-5%
88	CN(C)CCC(C(=O)c1ccccc1)c1cccnc1 (centres undefined)	-3.0%	.	.	19%
89	CCc1ccc2nc(SCC(=O)N3CCCCC3)c(C#N)cc2c1	2.4%	.	.	-11%
90	COCCNC(=O)c1noc2c1CCc1cc(OC)ccc1-2	3.4%	0	-52%	12%
91	COc1ccccc1CNC(=O)c1ccc2c(c1)OCO2	6.8%	.	-18%	0%
92	COc1cc(NCc2ccccc2)c2ncn(Cc3ccccc3)c2c1	1.1%	.	.	1%
93	CN(C)C(CNC(=O)c1ccc2nc[nH]c2c1)c1ccccc1 (centres undefined)	-1.1%	8	-11%	-20%
94	CSc1ccccc1NC(=O)c1c(Br)cnn1C	-5.3%	9	-2%	-7%
95	O=C(c1ccc2c(=O)n(Cc3ccc(Cl)cc3)c(=S)[nH]c2c1)N1CCOCC1	-3.8%	.	3%	-16%
96	Cn1cc(CC(=O)Nc2cccc(C#N)c2)c2ccccc21	1.0%	2	-10%	-8%
97	CCc1ccc(N2CC(C(=O)Nc3cc(C)on3)CC2=O)cc1 (centres undefined)	0.3%	3	-2%	5%
98	O=C(NN1C(=O)C2C3C=CC([C@@H]2C1=O)C31CC1)c1ccccc1 (some centres undefined)	6.1%	3	-1%	19%
99	CCOC(=O)c1cc(S(=O)(=O)N2CCN(C3CCCCC3)CC2)cn1C	1.9%	.	-1%	-12%

Source: PubChem

Some of the compounds tested; rates above refer to the full screens.
